Screens (PubChem BioAssay)
Beta apoptosis – inhibitors of cytokine-induced beta cell apoptosis, primary screen, luminescence; INS-1E cytokine-induced death, ATP luminescence, 48 h; percent of positive-control rescue, neutral wells zero; protection from apoptosis, % (test concentration not listed); 0.8% of 300,000 active; AID 435005, 2010;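 active = all replicates at 75% or more, or half of them and the mean; inconclusive = half reach 75% but not the mean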;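 also: 0% = cytokine-treated negative control wells and 100% = positive control rescue; higher means more ATP so stronger rescue from cytokine killing; wells of about 40 µL received 100 nL stock; the first replicate is given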
Ecoli rRNA inh – reduced GFP signal of wild-type E. coli, primary screen, bacterial rRNA inhibitor project, GFP/RFP fluorescence, OD600, single point. E. coli WT GFP vs humanized-ribosome RFP mutants, 24 h; active compounds read low; DMSO median 0, no signal -100. GFP signal change (wild-type ribosome), % (test concentration not listed). 1.6% of 350,000 active;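 active = significant combined selectivity score with lowered wild-type GFP, culture density cut under 30%, mutant RFP and density less affected; inactive = any of these conditions unmet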; also: one replicate is shown; some compounds called inactive have numbers as strong as hits
A1 inh – caspase 3/7 activation in MEF A1-2A-BIM cells, primary screen, A1 inhibitor project, cell-based, luminescence, HTS; AID 2462, 2010; caspase activation, % (test concentration not listed); Caspase-Glo 3/7 luminescence, 3 h; percent of clofoctol response, vehicle zero; 0.066% of 330,000 active;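 active = over half of replicate activation scores above 10%, or exactly half above 10 with the replicate mean above 10; inconclusive = replicate mean below 10 yet half the replicates above 10; inactive = over half of replicates below 10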;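 also: wells of about 30 µL received 50 nL stock; many hits fall short of the cut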
RanGTP-Impb inh – inhibitors of RanGTP-importin-beta interaction, primary screen, biochemical, FRET, CFP-Ran, YFP-importin-beta, homogeneous; Ran GTPase (GTP-bound) - importin-beta complex; cell-free CFP-Ran/YFP-importin-beta FRET ratio; inhibition, % (concentration not given with the values); 1.1% of 300,000 active; AID 2216, 2009;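 active = most replicates above 15%; inconclusive = exactly half above 15%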;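 also: 0% = DMSO wells and 100% = Ran loaded with GDP instead of GTP; wells of about 40 µL received 100 nL stock; the first replicate is given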
MLL AF4-AF9 inh – inhibitors of AF4 peptide binding to AF9, primary screen, biochemical, AlphaScreen, biotin-AF4 peptide, FLAG-AF9, single point; 0.47% of 350,000 active; AID 651704, 2012; Protein AF-9 (Homo sapiens), P42568; inhibition, % at 10 µM;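 active = every replicate reaching a set inhibition limit, whatever the replicate mean, cut at about 25% in these data; inconclusive = mean inhibition reaches that limit but some replicates miss it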;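 also: 0% = plate neutral control median and 100% = total signal loss; the record names both 10 and 1 µM as test concentration; the first replicate is given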
Target sequence (P42568 whole entry, looked up): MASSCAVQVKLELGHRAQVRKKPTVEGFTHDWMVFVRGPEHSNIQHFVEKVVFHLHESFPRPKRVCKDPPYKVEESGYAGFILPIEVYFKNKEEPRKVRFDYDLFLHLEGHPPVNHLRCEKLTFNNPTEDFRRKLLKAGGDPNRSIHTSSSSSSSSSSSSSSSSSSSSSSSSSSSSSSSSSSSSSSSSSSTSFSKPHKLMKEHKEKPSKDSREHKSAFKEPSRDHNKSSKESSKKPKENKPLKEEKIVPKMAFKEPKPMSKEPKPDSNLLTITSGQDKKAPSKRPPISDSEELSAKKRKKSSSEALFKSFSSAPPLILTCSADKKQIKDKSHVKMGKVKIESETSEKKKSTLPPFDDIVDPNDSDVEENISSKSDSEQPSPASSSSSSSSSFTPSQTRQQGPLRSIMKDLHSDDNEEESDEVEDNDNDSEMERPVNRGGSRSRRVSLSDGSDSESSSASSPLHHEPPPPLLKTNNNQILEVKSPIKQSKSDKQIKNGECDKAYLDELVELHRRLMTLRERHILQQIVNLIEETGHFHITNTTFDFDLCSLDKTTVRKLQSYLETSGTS
Calb FLC – C. albicans growth inhibition with fluconazole, primary screen, CaCi-2 strain, Alamar Blue fluorescence | AID 1979, 2009 | 0.57% of 300,000 active | C. albicans CaCi-2 (fluconazole-resistant clinical isolate) + fluconazole, 48 h | growth inhibition, % (no concentration beside the values);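 active = most replicates above 75%; inconclusive = exactly half above 75%; inactive = most below 75%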;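 also: all wells also contain fluconazole at 8 µg/ml as a sub-toxic cotreatment; 0% = median of DMSO wells and 100% = median of geldanamycin control wells; wells of about 8 µL received 7.5 nL stock; the first replicate is given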
Vif A3G – inhibitors of Vif binding to APOBEC3G peptide, primary screen, biochemical, TR-FRET, GST-Vif 1-94, biotin-A3G peptide, dose response retest (AID 1117319); TR-FRET GST-Vif / biotin-A3G peptide binding; higher % means a stronger effect; test concentration not given here; strong numbers were not always called active; one-dose inhibition, %; IC50 in µM for titrated hits; 0.57% of 260,000 active;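 active = above the screen mean plus three standard deviations and confirmed in dose response; inconclusive = results disagree or hit not tested in dose response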;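 also: Vif residues 1-94 fused to GST binding biotinylated APOBEC3G peptide 110-148; 0% = full assay without inhibitor and 100% = GST in place of GST-Vif; retest series ran down from 100 µM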
T cruzi inh – inhibitors of intracellular T. cruzi growth, primary screen, luminescence, NIH3T3 host cells; T. cruzi beta-gal in NIH3T3, 90 h; 1.4% of 300,000 active; AID 1885, 2009; inhibition, % (no concentration beside the values);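 active = mean inhibition across valid replicates above about 55%, limit read from the data; inconclusive = mean below that limit but half or more replicates reach it; inactive = mean below it, under half of replicates reach it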;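 also: signal also drops with host cell toxicity which is not excluded here; 0% = plate median of DMSO wells and 100% = zero luminescence signal; higher percent means less beta-gal luminescence so fewer parasites; stock transfer was 50 nL into about 50 µL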
Ecoli rRNA inh OD600 – further read-out of Ecoli rRNA inh, marked with its call; OD600 change, %; measured here: OD600 growth;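 optical density of the mix in the first replicate; 0 = DMSO median and -100 = no signal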
Ecoli rRNA inh RFP – second read-out of Ecoli rRNA inh, no call of its own (marks repeat the call); RFP signal change, %; measured here: RFP humanized mutant strains;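 first replicate; 0 = DMSO median and -100 = no signal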
Numbers without * were called inactive; ? = inconclusive; · = no result given; & = joins results of further samples. Not all compounds are listed; rates above refer to the full screens.

SMILES	Beta apoptosis	Ecoli rRNA inh	Ecoli rRNA inh OD600	Ecoli rRNA inh RFP	A1 inh	RanGTP-Impb inh	MLL AF4-AF9 inh	Calb FLC	Vif A3G	T cruzi inh
COc1cccc(/C=N/NC(=O)CNC(=O)c2cccs2)c1O	86*	6	-5	-4.5	-1.7	3.1	3.0	0	5%	3
NNC(=O)c1cc(C23CC4CC(CC(C4)C2)C3)[nH]n1	2	·	·	·	0.6	-4.6	3.5	6	-1%	2
COc1ccc(-c2nn(-c3ccccc3)cc2C(=O)Nc2nc(CC(C)=O)ns2)cc1	1	·	·	·	0.1	?	·	0	-19%	-6
COc1cccc(CN(C)CC(=O)Nc2c(C)cccc2C(C)C)c1	1	-31	-30	-3.2	-0.4	2.2	-0.4	-24	5%	7
COc1ccc(C(=O)Nc2nc(-c3ccc([N+](=O)[O-])cc3)c(-c3ccccc3)s2)cc1	4	·	·	·	0.0	-7.4	·	-1	1%	-13
CCOc1ccc(NC(=O)CN(C)C(=O)CSC(C)C(=O)Nc2cc(C)on2)cc1OCC (stereo unspecified)	-2	12	12	3.1	0.2	1.2	16	-5	6%	-2
CCCCNc1ncnc2c1cnn2-c1ccc(Cl)cc1	15	0	-11	-1.0	-0.3	2.8	-5.8	0	-2%	-31
CC(C)(C)NS(=O)(=O)c1ccc(CCC(=O)Nc2ccc3c(c2)OCCO3)cc1	0	·	·	·	0.6	0.5	·	0	1%	1
COC(=O)C(C)Sc1nc2c(c(=O)n1-c1ccccc1)SCC2 (stereo unspecified)	-1	·	·	·	0.1	1.7	·	-3	0%	-4
O=C(N/N=C/c1ccc([N+](=O)[O-])o1)c1cn(-c2ccccc2)nc1-c1ccc(F)cc1	-2	10	5	13	0.5	6.5	-16	21	·	69*
O=C(Nc1ccc2nc(-c3cccs3)c(-c3cccs3)nc2c1)N1CCOCC1	-1	·	·	·	0.0	96*	·	?	-4%	9
CCC(=O)Nc1ccc(N2CCN(Cc3ccccc3)CC2)cc1	12	·	·	·	-0.2	3.2	·	·	26%	-22
CC(C)CC(NC(=O)c1ccccc1)C(=O)OCC(=O)Nc1ccc(Br)cn1 (stereo unspecified)	0	·	·	·	0.5	2.1	·	9	4%	3
Cc1cc(C)c(NC(=O)c2ccccc2CCc2ccccc2)c(C)c1	1	·	·	·	0.2	0.7	·	6	-5%	9
O=S(=O)(c1ccc(Cl)cc1)n1ccc(-c2cccc(OCc3c(F)cccc3Cl)c2)n1	·	·	·	·	-0.1	0.5	·	-12	-2%	42
COc1cc(NC(=O)CSc2ncnc3scc(-c4ccccc4)c23)c(C(=O)O)cc1OC	4	11	11	2.8	0.0	5.7	-1.9	9	-11%	-3
O=C(NCC(c1ccco1)N1CCc2ccccc21)c1c(F)cccc1F (stereo unspecified)	-3	-9	-16	-5.1	0.7	-1.8	0.5	1	-7%	9
COC(=O)c1cccc(NC(=O)c2cccc([N+](=O)[O-])c2)c1	4	·	·	·	-0.4	2.0	2.9	6	·	-8
Cc1cc(CSc2ccccc2)ccc1NC(=O)c1ccc(C)c([N+](=O)[O-])c1	5	·	·	·	0.6	0.3	-0.3	-15	·	23
CCc1ccc(NC(=O)Cc2ccc(-n3cccc3)cc2)cc1	-5	·	·	·	1.0	3.7	·	1	22%	14
CC(C)C(=O)Nc1ccc2nn(-c3ccccc3)nc2c1	0	3	14	-0.7	-4.6	-3.3	-0.8	1	·	0
Cc1ccc(S(=O)(=O)N(C)c2c(C)ccc(S(=O)(=O)N3CCN(C=O)CC3)c2C)cc1	0	-6	-6	1.9	-0.3	2.6	3.5	4	6%	13
COc1cccc(CCc2nnc(CCC(=O)NCCC3CCCCO3)o2)c1 (stereo unspecified)	-6	1	2	-0.6	-0.5	0.1	-2.0	-6	·	-10
Cc1ccc(N/C(N)=N/c2nc(CSc3ccccn3)cc(=O)[nH]2)c(C)c1	6	0	4	-1.8	0.2	-0.9	1.2	25	-7%	10
COc1ccc(CCNC(=O)C(=O)c2cn(CC(=O)N3CCOCC3)c3ccccc23)cc1OC	-2	2	9	0.7	-0.1	-3.4	-3.0	13	-5%	-10

Five entries already listed, arranged by number of heavy atoms, ascending.
SMILES	Beta apoptosis	Ecoli rRNA inh	Ecoli rRNA inh OD600	Ecoli rRNA inh RFP	A1 inh	RanGTP-Impb inh	MLL AF4-AF9 inh	Calb FLC	Vif A3G	T cruzi inh
COC(=O)c1cccc(NC(=O)c2cccc([N+](=O)[O-])c2)c1	4	·	·	·	-0.4	2.0	2.9	6	·	-8
COC(=O)C(C)Sc1nc2c(c(=O)n1-c1ccccc1)SCC2 (stereo unspecified)	-1	·	·	·	0.1	1.7	·	-3	0%	-4
CCC(=O)Nc1ccc(N2CCN(Cc3ccccc3)CC2)cc1	12	·	·	·	-0.2	3.2	·	·	26%	-22
Cc1ccc(N/C(N)=N/c2nc(CSc3ccccn3)cc(=O)[nH]2)c(C)c1	6	0	4	-1.8	0.2	-0.9	1.2	25	-7%	10
CCOc1ccc(NC(=O)CN(C)C(=O)CSC(C)C(=O)Nc2cc(C)on2)cc1OCC (stereo unspecified)	-2	12	12	3.1	0.2	1.2	16	-5	6%	-2

Further entries
SMILES	Beta apoptosis	Ecoli rRNA inh	Ecoli rRNA inh OD600	Ecoli rRNA inh RFP	A1 inh	RanGTP-Impb inh	MLL AF4-AF9 inh	Calb FLC	Vif A3G	T cruzi inh
O=C(c1cc2ccccc2oc1=O)N(c1ccc(Cl)cc1)C1C=CS(=O)(=O)C1 (stereo unspecified)	-13	·	·	·	-0.3	4.4	·	25	8%	-36
O=C(Nc1nccs1)c1ccc(-c2ccc(F)cc2)o1	-5	7	-6	-0.1	-1.3	5.5	-1.6	9	-15%	19
CCOC(=O)CSc1nc(N)c(C(=O)Nc2ccc(N(C)C)cc2)s1	-7	·	·	·	0.0	-4.1	·	-3	8%	-5
Cc1n[nH]c(C)c1S(=O)(=O)NCCc1ccc(Cl)cc1	-9	·	·	·	0.3	2.3	·	-3	3%	1
COc1ccc(S(=O)(=O)N2CCCCC2)cc1NC(=O)Cn1cnc2ccccc2c1=O	1	-5	-9	3.3	0.3	·	6.8	·	3%	·
N/C(=N\OC(=O)CCC1CCCC1)c1ccccn1	-2	·	·	·	0.8	1.1	·	-9	0%	7
C[C@H](CO)N1C[C@H](C)[C@@H](CN(C)S(=O)(=O)c2cccs2)Oc2c(NC(=O)C3CCCCC3)cccc2C1=O	-2	1&-4	2&-5	0.9&1.9	-0.5	·	0.4	·	·	·
Cc1ccc(C(=O)n2nc(-c3ccco3)nc2N)cc1	2	·	·	·	-0.1	1.9	·	4	-7%	-19
Cc1oc(-c2ccccc2)cc1C(N)=O	-10	·	·	·	0.9	2.3	·	-3	20%	-1
Cn1c(CCNS(=O)(=O)c2ccccc2)nnc1SCc1cccnc1	·	5	11	-7.7	-0.2	5.8	-3.7	-15	·	12
CCc1noc(C)c1C(=O)Nc1nc(-c2cc(OC)ccc2OC)cs1	9	5	4	4.4	0.8	-1.1	-0.6	3	3%	19
CNS(=O)(=O)c1ccc(NC(=O)c2cncc(Br)c2)cc1	-1	-4	-3	0.0	1.9	-0.5	-0.6	-6	-4%	-14
C=CCNC(=O)c1ccccc1Cl	0	·	·	·	1.5	·	·	-13	70%	3
O=C(CSc1n[nH]c(-c2ccncc2)n1)NCCc1ccccc1	·	·	·	·	0.8	-0.1	·	-29	-4%	-7
CS(=O)(=O)N1CCC(C(=O)NCc2ccc(F)cc2)CC1	-1	10	0	-10	0.3	-1.2	-0.5	-6	0%	-8
C=CCNC(=O)CSc1nnc(-c2ccncc2)n1CCc1ccccc1	-3	·	·	·	-1.4	-1.4	·	-2	19%	4
O=C(Nc1nc2ccccc2n1CCN1CCOCC1)c1ccc(Cl)cc1	·	17	12	5.4	0.0	4.9	0.3	1	-72%	4
COc1cccc2cc(C(N)=O)/c(=N\NC(=O)c3ccccc3)oc12	2	15	11	-1.3	-6.9	5.1	-2.1	8	7%	-6
CCOC(=O)N1CCN(C(=O)CCS(=O)(=O)c2ccc3c(c2)CC(C)N3C(=O)CC)CC1 (stereo unspecified)	-8	9	9	-0.3	-0.1	2.5	-1.6	5	·	3
Cc1nc(-c2ccc(F)cc2)c(CC(=O)N(C)CC(=O)Nc2ccc(Br)cc2C)s1	3	-6	-14	1.1	0.4	-5.5	4.8	7	0%	7
Cn1c(-c2ccc(C=O)s2)nc2c3ccccc3c3ccccc3c21	14	·	·	·	-0.6	-41	·	2	0%	34
COc1ccc(OC)c(S(=O)(=O)N2CCC(C(=O)NC3CCCCCC3)CC2)c1	-3	11	6	-0.1	1.1	2.7	-0.7	14	·	3
Cc1ccc(S(=O)(=O)Nc2nc(C)c(C(=O)N/N=C/c3ccccc3)s2)cc1	-7	1	8	0.7	0.6	?	-1.8	-7	18%	-5
CC(C)(C)c1cc2cccnc2n1Cc1cccc(F)c1	4	·	·	·	0.5	5.2	·	-30	3%	8
CC(C)(C)OC(=O)C[C@@H]1C/C=C\C[C@H](CC(=O)N(CCO)Cc2ccccc2)C(=O)N[C@H](C(C)(C)C)COC1=O	10	9	22	2.6	-0.3	·	-6.9	·	·	·
SMILES	Beta apoptosis	Ecoli rRNA inh	Ecoli rRNA inh OD600	Ecoli rRNA inh RFP	A1 inh	RanGTP-Impb inh	MLL AF4-AF9 inh	Calb FLC	Vif A3G	T cruzi inh
CC(C)C(=O)NCCc1nc2ccccc2n1C	0	·	·	·	-1.2	1.0	·	26	10%	-5
COC(=O)c1ccc(NC(=O)CN2CCC(NC(=O)c3ccco3)CC2)cc1	-8	2	-7	-3.7	0.1	-2.3	0.2	-21	-7%	1
O=C(Nc1ccc(F)cc1)c1ccc(CSc2ccccc2)o1	-6	-52	-74	-13	-0.9	-2.3	-2.0	27	·	-29
Cc1onc(-c2ccccc2Cl)c1C(=O)N(C)CC(=O)Nc1ccc(F)c(F)c1F	1	-7	-8	2.7	1.3	?	-1.0	0	-4%	0
Cc1ccc(-c2nc(C)sc2CC(=O)OCC(=O)Nc2cccc([N+](=O)[O-])c2)cc1	0	-3	7	-2.7	0.8	-1.3	1.6	-1	·	11
N#Cc1c(NC(=O)c2cc([N+](=O)[O-])ccc2N2CCOCC2)sc2c1CCCC2	4	-1	-1	-0.7	-0.1	-0.5	-1.3	-26	19%	24
Cc1ccc(-n2c(C)nn(CCOc3ccccc3)c2=O)cc1	-6	9	7	2.2	-0.1	1.2	4.2	-3	-10%	-8
